Screens: PubChem BioAssay, several laboratories
Mtb growth: M. tuberculosis H37Rv growth inhibitors, H37Rv strain (AID 1626) | M. tuberculosis H37Rv growth inhibition; higher % means a stronger effect | 220,000 compounds, 0.95% hits | inhibition, % at 10 µM, or IC50 in µM where a hit was titrated;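 active = confirmed in a dose series; inconclusive = inhibition above 80% but not taken into the dose series; inactive = below 80% or under 30% at every dose of the series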;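 also: bacteria incubated seven days before Alamar blue readout; 0% = bacteria only wells and 100% = bacteria with antibiotic wells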
YopH PTP inh: blocks Yersinia enterocolitica YopH tyrosine phosphatase. fluorescence Ex485/Em525. inhibition, %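 (about 10 µM by stock and volumes)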. 140,000 compounds, 0.16% hits. AID 898;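 active = inhibition of 50% or more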;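 also: controls were vehicle for no effect and minimum signal wells for full effect; inactives centre near -20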
Mtb betalactam: beta-lactam sensitization of Mtb H37Rv; 330,000 compounds, 0.27% hits; inhibition, % at 25 µM; M. tuberculosis H37Rv growth with meropenem, percent inhibition; hits of this screen are not shown here;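 active = about 74% or more and at least 40 points above the plate without the antibiotic, then above 30% in a dose series; inconclusive = first-round hits that could not be retested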;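 also: growth measured after seven days incubation then overnight dye step; 0% = bacteria only wells and 100% = bacteria with antibiotic; twin plates without the antibiotic show which effects depend on it; some results filed as inactive read as strong as hits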
RecA intein inh: blocks M. tuberculosis RecA intein splicing; cell-free RecA intein splicing, fluorescence; 290,000 compounds, 0.75% hits; inhibition, %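 (about 9 µM by stock and volumes)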; AID 2221; in the data active = inhibition above about 30%; inconclusive = no clear call, values can overlap the other calls;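 also: 0% = vehicle wells and 100% = reference inhibitor control wells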
Target sequence (P9WHJ3 whole entry, looked up): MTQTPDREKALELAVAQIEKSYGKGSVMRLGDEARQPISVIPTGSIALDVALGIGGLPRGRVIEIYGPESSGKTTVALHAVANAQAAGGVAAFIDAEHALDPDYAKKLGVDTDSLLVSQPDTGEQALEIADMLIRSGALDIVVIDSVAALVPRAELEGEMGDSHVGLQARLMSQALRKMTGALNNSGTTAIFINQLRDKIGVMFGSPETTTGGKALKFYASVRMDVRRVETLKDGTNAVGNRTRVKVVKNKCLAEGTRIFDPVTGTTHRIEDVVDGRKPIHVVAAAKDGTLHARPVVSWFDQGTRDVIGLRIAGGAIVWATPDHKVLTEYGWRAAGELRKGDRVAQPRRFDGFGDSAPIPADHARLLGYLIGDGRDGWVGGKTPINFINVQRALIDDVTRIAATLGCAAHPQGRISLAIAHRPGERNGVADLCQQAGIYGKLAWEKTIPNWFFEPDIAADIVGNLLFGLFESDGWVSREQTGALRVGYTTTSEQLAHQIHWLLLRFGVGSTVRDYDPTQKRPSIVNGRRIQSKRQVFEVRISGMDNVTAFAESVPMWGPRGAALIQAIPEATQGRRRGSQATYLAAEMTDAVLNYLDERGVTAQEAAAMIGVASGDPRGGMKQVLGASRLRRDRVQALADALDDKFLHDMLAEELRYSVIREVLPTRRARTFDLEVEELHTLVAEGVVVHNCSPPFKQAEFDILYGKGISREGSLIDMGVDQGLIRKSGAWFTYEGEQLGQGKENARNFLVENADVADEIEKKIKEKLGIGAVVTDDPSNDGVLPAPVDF
Arbovirus anti: arbovirus infection inhibition | arbovirus infection cell-based antiviral screen | inhibition, % at 10 µM | 200,000 compounds, 0.37% hits | AID 1251;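 active = inhibition from about 30%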;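 also: bluetongue infection of BSR cells; cell survival read as ATP light after 72 h; 0% = infected wells without compound and 100% = uninfected wells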
Arbovirus anti repeat: also measured in Arbovirus anti; calls as there; inhibition, %; measured here: 10K subset replicate screen; many hits read low in the repeat;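 first of two repeat runs on a subset; 0% = infected and 100% = uninfected wells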
Starred values were filed as active, the others as inactive; ? = inconclusive; / = not tested or not shown. Only part of the results is shown, so the mix of outcomes need not match the whole.

SMILES	Mtb growth	YopH PTP inh	Mtb betalactam	RecA intein inh	Arbovirus anti	others
CCc1ccc(C(=O)COC(=O)CNC(=O)CNC(=O)Cc2ccccc2)cc1	1%	-41	-20	0.4	-1
CCNC(=O)/C(C#N)=C/c1c(N2CC(C)OC(C)C2)nc2ccccn2c1=O (stereo unspecified)	-7%	-5	-9	-35	-3
CN(C(=O)c1cccc(NC(=O)c2cccs2)c1)c1ccccc1	/	/	4	-1.3	/
CSc1ccc(CN(C)Cc2nc3cc(C(F)(F)F)ccc3c(=O)[nH]2)cc1	91%	/	97	-1.5	6
Cc1nn(C(C)C(=O)NCC2CCCO2)c(C)c1[N+](=O)[O-] (stereo unspecified)	-4%	/	-1	-2.2	-1
CC(=O)Nc1ccc(CN2CCN(CC=C(C)C)C(CCO)C2)cc1 (stereo unspecified)	0%	/	-5	-2.2	3
Cc1ccc(-n2nc3c(c2NC(=O)CC(C)C)CS(=O)(=O)C3)c(C)c1	/	/	-4	-2.4	/
CCn1c(C(C)NS(=O)(=O)c2ccc(Cl)cc2)n[nH]c1=S (stereo unspecified)	/	/	-13	-2.1	/
O=C1NC(=S)N(c2cccc(Cl)c2)C12CCCCC2	1%	-8	-2	-1.3	2
CCCCCN(C(=O)CCC(=O)OCC(=O)N(C)C1CCCCC1)c1c(N)n(CCCC)c(=O)[nH]c1=O	/	/	1	-3.4	/

Part of the list above in order of number of heavy atoms, high to low.
SMILES	Mtb growth	YopH PTP inh	Mtb betalactam	RecA intein inh	Arbovirus anti	others
CCCCCN(C(=O)CCC(=O)OCC(=O)N(C)C1CCCCC1)c1c(N)n(CCCC)c(=O)[nH]c1=O	/	/	1	-3.4	/
CCc1ccc(C(=O)COC(=O)CNC(=O)CNC(=O)Cc2ccccc2)cc1	1%	-41	-20	0.4	-1
CSc1ccc(CN(C)Cc2nc3cc(C(F)(F)F)ccc3c(=O)[nH]2)cc1	91%	/	97	-1.5	6
Cc1nn(C(C)C(=O)NCC2CCCO2)c(C)c1[N+](=O)[O-] (stereo unspecified)	-4%	/	-1	-2.2	-1

New compounds follow.
SMILES	Mtb growth	YopH PTP inh	Mtb betalactam	RecA intein inh	Arbovirus anti	others
COc1cc(C(=O)NCCC(=O)NCc2ccc3c(c2)OCO3)cc(OC)c1OC	-4%	-24	?	-4.0	1
CCc1ccc(CN(C(=O)COc2c(C)cccc2C)C2CCS(=O)(=O)C2)cc1 (stereo unspecified)	/	/	6	4.5	/
O=C(COC(=O)C1CCN(c2ccc(C(F)(F)F)cn2)CC1)c1cccc(Br)c1	/	/	73	13	/
COc1cc(/C=C/c2nc(-c3ccccc3O)n[nH]2)cc(OC)c1OC	9%	-15	5	4.1	-32
O=C(NCc1ccco1)c1cc2n(n1)C(C(F)(F)F)CC(c1ccc(Br)cc1)N2 (stereo unspecified)	74%	-21	-3	-0.8	1
O=c1oc2ccccc2c(N2CCCC2)c1CN1CCCC1	-9%	-33	3	-0.7	11
COc1ccccc1-n1c(C)c(C(=O)O)c2cc(OC)c3ccccc3c21	/	/	-6	7.6	/
Cc1ccc(-c2nc(N=Nc3ccc(O)cc3)n[nH]2)cc1	27%	-13	50	3.1	-32
CN(Cc1cnn(C)c1)C(=O)c1ccc(OC2CCN(CCc3ccccc3)CC2)cc1	5%	/	1	0.3	-9
COC(C(=O)Nc1ccnn1C1CCN(C(=O)c2ccc(C)cc2)CC1)c1ccccc1 (stereo unspecified)	/	/	-1	2.0	/
CCOC(=O)Cn1cc(/C=N/NC(=O)c2ccc(C#N)cc2F)c2ccccc21	-7%	2	-12	-0.1	6
Cc1ccc(NC(=O)CCCn2c(=O)oc3ccccc32)c(O)c1	/	/	-5	-2.3	/
O=S(=O)(c1ccc(Cl)cc1)N1CCC(N2CCCCCC2)CC1	-1%	-43	1	-2.4	-10
Cc1nc(C)c(-c2ccc(SCC(=O)Nc3ccccc3)nn2)s1	/	/	-19	3.3	/
Cn1c(SCc2ccc(F)cc2)nnc1-c1ccccn1	-20%	-48	-10	-0.9	-4
NC(=O)c1ccc(S(=O)(=O)N2CCSCC2)cc1	/	/	-1	-0.1	/
Cc1sc(NC(=O)C2CCCCC2C(=O)O)c(C(N)=O)c1-c1ccc(C(C)(C)C)cc1 (stereo unspecified)	-5%	-4	-3	0.1	23
C/C(CC(=O)Nc1cccnc1)=N\NC(=O)C(=O)Nc1cccc(C)c1	?	-5	81	-3.7	-8
O=[N+]([O-])c1cccc(Nc2c([N+](=O)[O-])ccc3nonc23)c1	/	/	6	-1.0	/
CCc1c(C)sc2nc(SCC(=O)Nc3cc(C)on3)n(CCOC)c(=O)c12	-2%	6	10	0.0	6
CCCn1c(C)cc(C)c(C#N)c1=O	6%	0	10	-2.5	3
Cc1c(Cl)cnc(NC(=O)CSc2nnc3ccccn23)c1Cl	-15%	-3	/	/	0
CCOC(=O)C1=NN(C(=O)COc2ccccc2)C(O)(c2ccc(Cl)cc2)C1 (stereo unspecified)	-4%	/	2	-0.3	-6
C=CCSc1nc(C)c(CC(=C)C)c(=O)[nH]1	2%	/	3	3.7	2
COc1ccc(C(=O)NCC(=O)OCC(=O)c2ccc3c(c2)NC(=O)CO3)cc1OC	-2%	/	-2	-6.8	18
O=C(NCc1cccnc1)c1sc2ccccc2c1Cl	10%	-31	-8	3.5	9
COc1cc(OC)cc(C(=O)Nc2cccc(N3CCCC3)c2)c1	20%	-19	-1	2.1	0
COc1ccccc1OCc1ccc(C(=O)c2ccccc2)cc1	/	/	4	0.9	/
Clc1cccc(-c2cc3nc4c(c(N5CCOCC5)n3n2)CCCC4)c1	53%	-24	21	19	15
Cc1ccc(NC(=S)NC(C)CCc2ccccc2)cc1C (stereo unspecified)	19%	-13	4	2.0	-30
O=c1cc(-c2ccccc2O)nc(-c2ccccc2)[nH]1	/	/	-2	0.3	/
COC(=O)c1ccccc1OCC(=O)N1CCN(c2ccc(F)cc2)CC1	-9%	-5	3	-1.8	0
CCCOc1cccc(C(=O)Nc2ccccc2C(=O)N2CCN(C)CC2)c1	/	/	-2	-3.3	/
CC(=O)Nc1nnc(-c2ccc(Cl)s2)o1	3%	-10	-1	0.6	3
O=C1CCc2cc(S(=O)(=O)N3CCCC3C(=O)N3CCN(c4ccccc4)CC3)ccc2N1 (stereo unspecified)	/	-53	-6	-1.5	1	Arbovirus anti repeat=-6
O=C(O)CCCCCNC(=O)CCn1cnc2ccccc2c1=O	-5%	2	?	1.1	-7
O=C(C1=C[C@H](c2ccc(Br)cc2)C[C@H](OCCCCO)O1)N1CCOCC1	-3%	/	-2	2.8	2
O=C(CSc1cccc(C(F)(F)F)c1)Nc1ccc(Cl)cc1Cl	1%	-17	5	-1.1	-3
CCN(CC)CCn1c(=S)[nH]c2cc(C(=O)N3CC(C)CC(C)C3)ccc2c1=O (stereo unspecified)	/	/	-1	-4.7	/
Cc1ccc(C(=O)c2cc3c(cc2[N+](=O)[O-])OCCO3)cc1	4%	/	-6	-42	1

A run of entries from further up:
SMILES	Mtb growth	YopH PTP inh	Mtb betalactam	RecA intein inh	Arbovirus anti	others
CC(=O)Nc1nnc(-c2ccc(Cl)s2)o1	3%	-10	-1	0.6	3
O=C1CCc2cc(S(=O)(=O)N3CCCC3C(=O)N3CCN(c4ccccc4)CC3)ccc2N1 (stereo unspecified)	/	-53	-6	-1.5	1	Arbovirus anti repeat=-6
O=C(O)CCCCCNC(=O)CCn1cnc2ccccc2c1=O	-5%	2	?	1.1	-7
O=C(C1=C[C@H](c2ccc(Br)cc2)C[C@H](OCCCCO)O1)N1CCOCC1	-3%	/	-2	2.8	2
O=C(CSc1cccc(C(F)(F)F)c1)Nc1ccc(Cl)cc1Cl	1%	-17	5	-1.1	-3
CCN(CC)CCn1c(=S)[nH]c2cc(C(=O)N3CC(C)CC(C)C3)ccc2c1=O (stereo unspecified)	/	/	-1	-4.7	/
Cc1ccc(C(=O)c2cc3c(cc2[N+](=O)[O-])OCCO3)cc1	4%	/	-6	-42	1

(next part)
SMILES	Mtb growth	YopH PTP inh	Mtb betalactam	RecA intein inh	Arbovirus anti	others
COc1cc(C(=O)OCC(=O)Nc2cc(C)on2)ccc1OCc1ccccc1Cl	23%	-7	22	-0.7	2
CCN1C(=O)[C@H]2[C@@H](c3ccc(-c4ccc(OC)cc4)cc3)N3CCCC[C@@]3(C(=O)OC)[C@H]2C1=O	/	/	-9	6.6	/
O=C(NCc1ccccn1)C(=O)NCC1OCCCN1S(=O)(=O)c1cc(F)ccc1F (stereo unspecified)	/	/	9	-2.3	/
O=C(Nc1cccc2ccccc12)N1CCN(Cc2ccc3c(c2)OCO3)CC1	0%	16	-7	0.4	-3
CCOc1ccccc1NC(=O)CSc1nnc(-c2ccco2)o1	-11%	-3	-1	2.5	4
COc1cccc(C2C(C(=O)Nc3ccccc3)=C(C)N=c3s/c(=C/c4ccc(OCC(=O)O)cc4)c(=O)n32)c1 (stereo unspecified)	9%	-14	-3	-1.0	-5
S=C(Cc1cccnc1)N1CCOCC1	58%	-6	3	-0.6	6
CC1CN(C(=O)N(C)C)CCN1C(=O)N(C)C (stereo unspecified)	-16%	-21	-4	-3.5	-7
O=C(c1ccco1)c1nnn(Cc2ccccc2)c1-c1ccccc1	-9%	-36	-2	3.3	-3	Arbovirus anti repeat=1
O=C(Nc1cc(=O)c2ccccc2o1)N1CCCCC1	-3%	-4	-8	-1.0	-6

Structures listed so far containing a nitro group on carbon (three):
SMILES	Mtb growth	YopH PTP inh	Mtb betalactam	RecA intein inh	Arbovirus anti	others
Cc1nn(C(C)C(=O)NCC2CCCO2)c(C)c1[N+](=O)[O-] (stereo unspecified)	-4%	/	-1	-2.2	-1
O=[N+]([O-])c1cccc(Nc2c([N+](=O)[O-])ccc3nonc23)c1	/	/	6	-1.0	/
Cc1ccc(C(=O)c2cc3c(cc2[N+](=O)[O-])OCCO3)cc1	4%	/	-6	-42	1

(further entries)
SMILES	Mtb growth	YopH PTP inh	Mtb betalactam	RecA intein inh	Arbovirus anti	others
CC1Cc2ccccc2N1C(=O)CSc1nnc(CNc2ccccc2)o1 (stereo unspecified)	9%	-21	-2	0.4	-10
O=[N+]([O-])c1cnc(N2CCCCC2)c([N+](=O)[O-])c1	11%	-23	56	5.8	1
CCOC(=O)c1cnc(SC)nc1Nc1cccc(F)c1	1%	-34	20	-1.1	-6
COc1ccc(C(C(=O)NCC2CCCO2)N(Cc2cccs2)C(=O)c2snc(C(N)=O)c2N)cc1OC (stereo unspecified)	/	/	-2	2.6	/
C/C(=N\NC(=O)c1ccc(Cl)c(S(=O)(=O)Nc2ccccc2Cl)c1)c1ccncc1	3%	-16	6	-3.2	-8
COc1ccc(-c2nn(-c3ccccc3)cc2C2CC(c3cccs3)=NN2C(=O)CCCC(=O)O)cc1 (stereo unspecified)	/	2	3	4.0	-3
Cc1ccc(S(=O)(=O)CC(O)COc2ccccc2C#N)cc1 (stereo unspecified)	9%	/	-4	-1.8	3
NS(=O)(=O)c1ccc(CCNC(=O)c2cccc3ccccc23)cc1	/	/	-4	-1.1	/
COc1ccc(NC(=O)CSc2nnc(Cc3cccn3C)n2-c2ccc(C)cc2)cc1OC	4%	-9	2	-6.6	17
CC(=O)N1CCN(CCN(CC2C(C)C=C(C)CC2C)C(C)=O)CC1 (stereo unspecified)	-10%	-14	0	4.2	-5
COc1cccc2c(=O)n(CC(=O)N3CCCc4ccccc43)ccc12	15%	-62	11	-1.7	-2
Cn1c(=O)c2c(ncn2CC(=O)NC2CCCCC2)n(C)c1=O	/	/	-24	-3.3	/
Cc1onc(-c2ccccc2)c1C(=O)NC(=S)Nc1sc2c(c1C#N)CCCC2	3%	-14	-1	-1.2	-1
COc1cc(C(=O)NCC(=O)N/N=C/c2ccc(-c3cccc([N+](=O)[O-])c3)o2)cc(OC)c1OC	/	/	5	-2.2	/
COc1cc(/C=N/NC(=O)CNC(=O)c2ccncc2)ccc1OC(C)=O	/	/	-5	-2.4	/
C[C@H]([C@@H](N)C(=O)N[C@@H](C(=O)O)[C@@H]1O[C@H](n2ccc(=O)[nH]c2=O)[C@@H](O)[C@H]1O)[C@@H](O)c1ccc(O)cn1	-11%	-14	1	2.8	10
Cc1cc(NC(=O)c2ccccc2)n(C)n1	/	/	-1	-2.0	/
COc1ccc(-c2ccc(NS(=O)(=O)c3ccc([N+](=O)[O-])cc3)cc2)nn1	/	/	-11	-1.5	/
Cc1cc(Br)ccc1NC(=O)c1ccco1	/	/	2	-0.5	/
Cc1ccc(-c2cc(-c3ccc(C)cc3)[n+](-c3ccc(C(=O)O)cc3)c(-c3ccc(C)cc3)c2)cc1	/	/	8	-0.4	/
CCC(CC)NC(=O)c1cc(OC)c(OC)c(OC)c1	-8%	-29	-4	-1.3	-2
Cn1c(CNc2ccc(Br)cc2)nc2ccccc21	/	/	-9	-0.2	/
O=c1oc2ccccc2c(N2CCCC2)c1[N+](=O)[O-]	-4%	/	1	-1.7	14
CCOc1cc(/C=N/NC(=O)COc2ccccc2C)ccc1OC(=O)c1cccs1	22%	-32	3	5.8	8
